VDR inhibitor – Inhibitors of the vitamin D receptor (VDR): qHTS. actives 0.93% (n = 400,000). AID 504847, 2011. VDR-SRC2-3 peptide fluorescence polarization, 2 h. Vitamin D3 receptor (Homo sapiens), P11473. Potency, µM, for the others: max response, negative = inhibition, most hits filed as inhibitors; active = well fitted inhibition curve with a large enough effect; inconclusive = small, poorly fitted or top-dose-only effect, or another doubt; inactive = no such curve, though single readings can be large or run the other way; also: series mostly up to about 120 µM
Target sequence (P11473 whole entry, looked up): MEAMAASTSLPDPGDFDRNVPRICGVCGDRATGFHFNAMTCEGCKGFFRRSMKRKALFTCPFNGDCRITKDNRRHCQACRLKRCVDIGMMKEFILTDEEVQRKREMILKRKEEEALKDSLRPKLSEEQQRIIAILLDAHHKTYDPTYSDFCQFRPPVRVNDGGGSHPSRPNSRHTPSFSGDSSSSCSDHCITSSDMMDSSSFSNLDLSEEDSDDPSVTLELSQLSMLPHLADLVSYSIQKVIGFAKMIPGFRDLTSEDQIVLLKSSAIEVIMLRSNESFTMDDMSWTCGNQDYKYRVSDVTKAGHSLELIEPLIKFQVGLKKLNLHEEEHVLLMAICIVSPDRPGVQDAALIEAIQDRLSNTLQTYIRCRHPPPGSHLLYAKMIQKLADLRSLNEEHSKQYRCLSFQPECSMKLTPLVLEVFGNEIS
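Measured by FP: displacement of SRC2-3 coactivator peptide from VDR by library compounds, following a two-hour ambient incubation.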
The depositor's hits bear a star; ? = inconclusive; & = joins results of further samples. % is scaled to controls: 0 for no effect and ±100 for the full control effect; potency is read from the fitted curve at half-maximal effect. This is a subset; the hit share may differ from the screen's.

SMILES	VDR inhibitor
Cc1ccc(S(=O)(=O)Cn2nnnc2CN2CCCC3(CCCCC3)C2)cc1	-17%
CCOc1ccc(Sc2cc(C(=O)NCCc3ccc(OC)c(OC)c3)c3ccccc3n2)cc1	10%
Nc1c(C(=O)NCc2ccc3c(c2)OCO3)nnn1Cc1ccc(Br)cc1	6%
O=C(N/C(=C\c1cccc(Br)c1)C(=O)N1CCCCC1)c1ccco1	-29%
Cn1c(SCC(=O)c2cc(Cl)c(Cl)s2)nnc1-c1ccco1	-22%
COc1ccc(-n2c(COc3ccccc3)nnc2SCC(N)=O)cc1	3%
O=C(Nc1ccc(C(=O)OCc2cc(=O)n3nc(C4CC4)sc3n2)cc1)c1ccc(F)cc1	1%
COc1cc(CNCc2ccccc2C(F)(F)F)cc(OC)c1	-3%
CC(C)(C)C(=O)NCCc1csc2nc(-c3ccc(F)cc3)nn12	12%
CCCCN(CC)c1nc(N)c(C#N)c(CC#N)c1C#N	-10%
CC(=O)Nc1ccc(-n2cc3c(c2-c2ccc(C)cc2)c(=O)n(C)c(=O)n3C)cc1	4%
CC(C)c1ccc(C(=O)CC2(O)C(=O)N(CCc3ccccc3)c3ccc(Cl)cc32)cc1 (stereo not given)	-14%
CCN1CCN(C(=O)Cn2c(-c3cccs3)cc3cc(Cl)ccc32)CC1	0%
O=C(Cc1ccc(Cl)cc1)NCCCNC(=O)c1cccnc1	-2%
COc1ccc(CCN(C(=O)C(F)(F)F)C(C(=O)NC2CCCCC2)c2cccs2)cc1 (stereo not given)	-10%
Oc1ccccc1CN1CCCN(Cc2ccccc2O)C1	3%
CCOC(=O)C1CCCN(c2c(N3CCN(c4ccccn4)CC3)c(=O)c2=O)C1 (stereo not given)	-29%
O=C(O)c1cccc2c1C(=O)c1cc(Br)ccc1S2(=O)=O	-6%
FC(F)(F)c1nnc2ccc(N3CCCCCC3)nn12	-18%
Cc1ccc(Cn2ccsc2=NC(=O)COC(=O)c2ccc(O)cc2O)cc1	-5%
COc1ccc(NC(=S)NC(=O)c2cc3ccccc3o2)c(OC)c1	-28%
Cc1ccc(NC(=O)COC(=O)c2cc(=O)c3ccccc3o2)c(Br)c1	11%
COc1ccc(CNC(=O)CNC(=O)CNS(=O)(=O)c2ccc(C)c(C)c2)cc1	-11%
O=C(COc1ccccc1Cl)Nc1cnn(Cc2ccccc2)c1	22%
COc1ccc(C2Nc3ccccc3C(=O)N2c2ccccc2)cc1COc1ccccn1 (stereo not given)	-3%

Reprinted at random: seven records from the list
SMILES	VDR inhibitor
FC(F)(F)c1nnc2ccc(N3CCCCCC3)nn12	-18%
CCN1CCN(C(=O)Cn2c(-c3cccs3)cc3cc(Cl)ccc32)CC1	0%
COc1ccc(-n2c(COc3ccccc3)nnc2SCC(N)=O)cc1	3%
O=C(Cc1ccc(Cl)cc1)NCCCNC(=O)c1cccnc1	-2%
COc1cc(CNCc2ccccc2C(F)(F)F)cc(OC)c1	-3%
CC(C)(C)C(=O)NCCc1csc2nc(-c3ccc(F)cc3)nn12	12%
CCOC(=O)C1CCCN(c2c(N3CCN(c4ccccn4)CC3)c(=O)c2=O)C1 (stereo not given)	-29%

(listing goes on)
SMILES	VDR inhibitor
CCOc1cccc2cc(-c3nc4sc5c(c4c(=O)[nH]3)CCC(C(C)(C)C)C5)c(=O)oc12 (stereo not given)	3%
O=C(CN1CCN(S(=O)(=O)c2ccc(F)c(Cl)c2)CC1)N1CCOCC1	-8%
COc1ccc(N2C(=O)C(CC(=O)Nc3ccc(F)cc3)N(CCc3ccc(OC)c(OC)c3)C2=O)cc1 (stereo not given)	1%
CC(C)CCN1CCN(CC#Cc2ccccc2)CC1CCO (stereo not given)	2%
Cc1ccc(NC(=O)C2CCN(S(=O)(=O)c3ccc(N4CCCC4=O)cc3)CC2)cc1Cl	4%
Oc1ccc2ccccc2c1CN1CC2CCC(CC2)C1	-5%
COC(=O)c1sc(C(C)(C)C)cc1CSc1ccccc1	-8%
Cc1ccc(S(=O)(=O)/N=S(\C)CC2CC2(Cl)Cl)cc1 (stereo not given)	4%
CCOC(=O)C1=C(C)C(c2ccc(OC)cc2)NC(=S)N1 (stereo not given)	28µM*
Cc1c(C(=O)N2CCc3ccccc3C2)sc2nc(-c3ccccc3)cn12	2%
COc1cc(C)ccc1S(=O)(=O)N1CCCCCC1	1%
O=C(COc1cccc([N+](=O)[O-])c1)N/N=C/c1ccco1	0%
COc1ccccc1OCCOc1ccc(/C=N/n2cnnc2)cc1	12%
Cc1ccc(NC(=O)c2ccc([N+](=O)[O-])cc2Cl)nc1	-10%
COc1cccc(Cn2c(Oc3cccc(C)c3)nc3c2c(=O)n(C)c(=O)n3C)c1	-5%
O=C(NOC(=O)c1cc(Br)ccc1Cl)c1cccs1	-6%
COc1ccc(NC(=O)c2sc3nc(C)c(C(=O)Nc4ccc(Cl)cc4)c(-c4ccc(Br)cc4)c3c2N)cc1	-17%
Clc1ncn(CCOc2ccccc2)c1Cl	-25%
CCOc1ccc2[nH]c3c(NCC(C)C)ncnc3c2c1	-2%
CN1CCN(C(=O)c2cnn(-c3ccccc3)c2C2CCN(C(=O)OC(C)(C)C)CC2)CC1	6%
O=C(COC(=O)Cc1c[nH]c2ccccc12)NC1CCCCC1	-15%
Cc1nn(-c2ccccc2)c2[nH]c(C(F)(F)F)cc(=O)c12	-5%
CCN(CC)C(=O)Cn1cc(C(=O)C(=O)NCCCn2ccnc2)c2ccccc21	6%
Cc1nc2cc(Cl)ccc2n1-c1ccccc1	9%
O=C(O)c1oc2ccccc2c1-n1cccc1	-3%

(more compounds)
SMILES	VDR inhibitor
COc1ccc(F)cc1C(=O)C1CCCN(Cc2cn(C)c3ccccc23)C1 (stereo not given)	6%
O=C(CSc1nc2ccccc2c(=O)n1-c1ccccc1)N1CCCc2ccccc21	-1%
COC(=O)C1c2ccccc2-c2ccccc21	9%
Nc1nc(SCc2ccccc2Cl)nc2nc3c(cc12)CCCC3	-5%
CCCCn1c(N)c(N(C(=O)CSc2nnnn2-c2ccccc2C)C2CCCC2)c(=O)[nH]c1=O	-4%
COc1ccccc1N1CCN(c2nc3ccc(C)cc3n3nnnc23)CC1	15%
CCOc1ccccc1/C=C/c1onc(C)c1S(=O)(=O)N1CCC(C(=O)N2CCCCC2)CC1	8%
COc1cccc(CNc2ccc3c(c2)ncn3C(C)C)c1OC	4%
CCc1ccccc1OCCSc1nc(-c2cccs2)nc2cc(=O)[nH]n12	-2%
COc1ccc(NC(=O)CSCC(=O)Oc2c(OC)cccc2OC)cc1	-3%
COc1ccc(COn2c(=O)c(C)[n+]([O-])c3ccccc32)cc1OC	4%
COc1ccc(CCN(C)C(=O)c2cccc(S(=O)(=O)NCc3ccccc3)c2)cc1OC	20%
CSc1ccccc1NC(=O)CSc1nncs1	-6%
CCCCCc1ccc(-c2cn(Cc3ccc(C(=O)c4ccccc4)cc3)nn2)cc1	-13%
CCO[C@H]1OC(C(=O)Nc2ccccc2)=C[C@@H](c2ccc(Br)cc2)[C@@H]1CCCO	?
Cc1ccc(NC(=O)C(Cc2ccccc2)NC(=O)c2ccco2)cc1 (stereo not given)	-11%
O=C(NC1CC1)c1ccc(F)cc1Cl	2%
O=c1c2[nH]cnc2n(-c2ccccc2)c(=O)n1Cc1ccccc1	-3%
CCOC(=O)C1CCCN(S(=O)(=O)c2cnc(Cl)c(Br)c2)C1 (stereo not given)	-3%
Cc1ccc(S(=O)(=O)NCC2CCC(C(=O)NCCCOC(C)C)CC2)cc1 (stereo not given)	8%
COc1ccc(-c2nnc(SCC(=O)N3CCCC3)o2)c(OC)c1	-13%
O=C1CN(Cc2ccccc2)C(=NCc2ccco2)S1	-27%
O=C(Nc1ccccc1)N(CCCN1CCOCC1)Cc1cc2cc3c(cc2[nH]c1=O)OCCO3	-3%
CC1=C(/C=C/C(C)=C/C=C/C(C)=C/C=C/C=C(C)/C=C/C=C(C)/C=C/C2=C(C)C(=O)CCC2(C)C)C(C)(C)CCC1=O	-23%
CCN(C(=O)COC(=O)CSc1ccc([N+](=O)[O-])cc1)C1CCS(=O)(=O)C1 (stereo not given)	?

Sorted by molar mass (smallest number first): three of the compounds above
SMILES	VDR inhibitor
COc1cccc(CNc2ccc3c(c2)ncn3C(C)C)c1OC	4%
O=C(Nc1ccccc1)N(CCCN1CCOCC1)Cc1cc2cc3c(cc2[nH]c1=O)OCCO3	-3%
CC1=C(/C=C/C(C)=C/C=C/C(C)=C/C=C/C=C(C)/C=C/C=C(C)/C=C/C2=C(C)C(=O)CCC2(C)C)C(C)(C)CCC1=O	-23%

New compounds follow.
SMILES	VDR inhibitor
CC(/C=N/NC(=O)c1cc(-c2ccc(Cl)cc2)nc2ccccc12)=C\c1ccco1	21%
CC(NC(=O)CSc1n[nH]c(-c2ccccc2Cl)n1)c1nc2ccccc2n1C (stereo not given)	12%
O=C(N/N=C/c1c[nH]c2ccccc12)c1cc2ccccc2o1	2%
CCN(CC)c1ccc(/C=C/c2ccc3ccc(OC)cc3[n+]2CC)cc1	11%
CC(NC(=S)Nc1ccc(F)cc1)c1ccccc1 (stereo not given)	?
O=C1NN=C(c2ccccc2)C1Cc1ccccc1 (stereo not given)	-16%
COc1cccc(C(=O)N2CCN(c3ncccn3)CC2)c1	1%
N=c1n(CCCOc2ccc(Br)cc2)c2ccccc2n1CC(N)=O	4%
Cc1cccc(NC(=O)C2CCN(S(=O)(=O)c3ccc4c(c3)CCCN4C(=O)C3CCC3)CC2)c1	-12%
CN(C(=O)c1cc(C(=O)N(C)c2ccccc2)cc([N+](=O)[O-])c1)c1ccccc1	12%
COc1cc(Cl)c(NS(=O)(=O)c2c(C(=O)N3CCCC3)c(C)n(C)c2C)c(OC)c1	-17%
Cc1ccc2nc(-c3ccc(-c4ccccn4)s3)cn2c1	18%
CCCCCCOc1ccc(C(CC(=O)O)C(N)=O)cc1 (stereo not given)	-2%
CCOC(=O)C1CCN(c2ccc(C(N)=O)cc2[N+](=O)[O-])CC1	-16%
C=CCOc1ccc(/C=N/n2nnnc2N)cc1OC	-2%
Cc1cc(Br)ccc1NC(=O)CSCc1c(C)noc1C	3%
COc1cccc(C(c2sc3nc(-c4ccco4)nn3c2O)N2CCC3(CC2)OCCO3)c1 (stereo not given)	5%
O=c1[nH]cnc2c1nc(Cl)n2C1OC(CO)C(O)C1O (stereo not given)	1%
CC(C)c1cc(N=NC(N)=O)cc(C(C)C)c1O	-10%
CC(C)CNC(=O)N1c2ccccc2Sc2ccccc21	6%
O=S(=O)(/C=C/c1cccc(Br)c1)N1CCOCC1	-4%
CCCCCC(=O)Nc1cccc(C2=NOC3(C2)C[C@@H](C(N)=O)N(C(=O)c2ccc(Cl)cc2)C3)c1 (stereo not given in full)	-13%
COc1ccc(CCc2cc(OC)c(OC)c(OC)c2)cc1	-16%
CC(C)(C)NC(=O)COC(=O)c1ccccc1C(=O)c1ccccc1	15%
COc1cccc(N2CCN(C(=O)c3cc4c(s3)-c3ccccc3OC4)CC2)c1	-9%&-2%

(next part)
SMILES	VDR inhibitor
Cc1ccccc1OC(C)C(=O)Nc1ccc2c(c1)OCO2 (stereo not given)	-6%
CC(=O)Nc1ccc(S(=O)(=O)N(C)C2CCN(C)CC2)cc1	12%
O=C(COc1ccc(F)cc1)Nc1nnc(SCc2cc(=O)n3ccccc3n2)s1	18%
CCN(CC)C(=O)c1sc2c(c1C)c(=O)n(Cc1ccccc1)c(=O)n2CC(=O)Nc1ccc(OC)cc1	14%
COc1ccc(-c2nc(-c3ccccc3)oc2Nc2c(C)cccc2C)cc1	14%
O=C(C[n+]1cccc(NC(=O)c2ccccc2)c1)c1ccc(NC(=O)c2ccccc2)cc1	22%
CC(=O)Nc1cccc(C(=O)OCc2ccc(C(=O)Oc3ccc(Cl)cc3)cc2)c1	-2%
CCCCCc1ccc(CC(=O)N2CCOCC2)cc1	-12%
COc1ccccc1C(=O)OCC(=O)Nc1cccc(S(=O)(=O)N2CCCC2)c1	7%
O=C(Nc1ccccc1)C1=C[C@@H](c2ccc(Br)cc2)C[C@@H](OCCCCO)O1	-12%
Cc1ccc(NC(=O)CSc2nnc(-c3cccnc3)n2-c2ccc(C)cc2)cc1	8%
C[N+]1(C)CCC[C@H]1C(=O)[O-]	7%&1%
C=CCn1c(SCC(=O)Nc2ccccc2OC)nc2c([nH]c3ccccc32)c1=O	-1%
CCN1CCN(c2nc3c(C)cccn3c(=O)c2C=C(C#N)C#N)CC1	-10%
COc1ccc(CN2C(=NC(=O)CCC3CCCC3)SC3CS(=O)(=O)CC32)cc1 (stereo not given)	-10%
N#Cc1ccc(C(=O)Nc2ccc(N3CCN(C(=O)c4ccco4)CC3)cc2)c(F)c1	10%
O=C(CCNC(=O)c1ccc(Br)cc1)NNC(=O)C1COc2ccccc2O1 (stereo not given)	-8%
O=C(COC(=O)c1ccc(Br)o1)NCCc1ccccc1	-8%
O=C(COC(=O)Cc1ccccc1[N+](=O)[O-])NCC1CCCCC1	-10%
OCC[C@H]1C[C@H](O)[C@@H](O)[C@@]2(CCCO2)O1	1%
Cc1occc1C(=O)N(C)Cc1nc(-c2ccc(Cl)cc2)no1	-20%
CCSc1ncc(Cl)c(C(=O)Nc2sc(C(C)=O)c(C)c2C(=O)OC)n1	-2%
CSCCC(NC=C1C(=O)OC(C)(C)OC1=O)C(=O)O (stereo not given)	9%
CCc1ccc(-c2cc(C)no2)cc1S(=O)(=O)NCCc1ccc(OC)c(OC)c1	6%
Cc1nn2c(=O)cc(COC(=O)c3ccc(NC(=O)CCc4ccccc4)cc3)nc2s1	-5%

Given comma-delimited: 2 of the compounds above
mol,VDR inhibitor
COc1ccc(CN2C(=NC(=O)CCC3CCCC3)SC3CS(=O)(=O)CC32)cc1 (stereo not given),-10%
CC(=O)Nc1cccc(C(=O)OCc2ccc(C(=O)Oc3ccc(Cl)cc3)cc2)c1,-2%

Screening data: PubChem, National Center for Advancing Translational Sciences (NCATS)
